LASV entry inh – blocks Lassa virus binding to or entry into cells; Lassa virus pseudotype entry inhibition, cell reporter; control for the full effect not named in the record; Potency, µM (top dose mostly 37.9 µM), without a hit: at the highest dose activity change, negative = inhibition, actives largely listed as inhibitors; 300,000 tested, 1.2% active; AID 540256; active means well fitted inhibition curve with a large enough effect; inconclusive means small, poorly fitted or top-dose-only effect, or effect the other way; inactive means flat fitted curve, though single readings scatter; tested in HEK293 cells; further: on the % scale 0 is the no-effect control and ±100 the full control effect; nearly all actives have a fitted effect of over 50% in size; luciferase read-out
Marburg entry inh – inhibitors of Marburg virus binding or cell entry. Marburg virus pseudotyped entry inhibition, cell reporter; control for the full effect not named in the record; about a third of the inactives were read at about 46 µM. Potency, µM (doses to about 37.8 µM), without a hit: top-dose activity change, negative = inhibition, usual class: inhibitors. 300,000 tested, 1.8% active. AID 540276; active = well fitted inhibition curve with a large enough effect; inconclusive = small, poorly fitted or top-dose-only effect, or effect the other way; inactive = flat fitted curve, though single readings scatter; tested in HEK293 cells; about a fifth of its hits are not listed in these tables; further: on the % scale 0 is the no-effect control and ±100 the full control effect; luciferase read-out
Cruzain noTriton – blocks cruzain activity in detergent-free assay; P25779; purified cruzain, Z-FR-AMC fluorescence, no detergent; Potency, µM, for inactives: max response, negative = inhibition, usual class: inhibitors; 200,000 tested, 2.3% active;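 further: plate controls were enzyme without inhibitor for no effect and buffer without enzyme for full effect; nearly all actives have a fitted effect of over 40% in size; top concentration of the series not given in the record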
Target sequence (P25779 123-467 limits assumed): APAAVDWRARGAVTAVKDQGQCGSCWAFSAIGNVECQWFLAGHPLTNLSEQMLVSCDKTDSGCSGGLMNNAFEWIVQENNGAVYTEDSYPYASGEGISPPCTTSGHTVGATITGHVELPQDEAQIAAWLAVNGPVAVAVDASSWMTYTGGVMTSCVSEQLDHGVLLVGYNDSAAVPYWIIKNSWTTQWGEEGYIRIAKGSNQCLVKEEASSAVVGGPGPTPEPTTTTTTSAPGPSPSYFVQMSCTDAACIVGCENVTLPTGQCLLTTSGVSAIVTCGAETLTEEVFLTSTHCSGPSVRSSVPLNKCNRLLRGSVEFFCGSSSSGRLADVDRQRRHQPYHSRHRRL
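Detergent-free condition (0.00005% Triton X-100) in acetate buffer pH 5.5 with DTT. 1.5 nM enzyme and compound were pre-mixed 15 min, then 2 uM Z-FR-AMC substrate added; reaction progress from fluorescence change between first and third reads (60 s).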
RE007 growth inh – less growth of the S. pombe RE007 Vpr strain; S. pombe RE007 Vpr strain, BacTiter-Glo ATP luminescence, 24 h; control for the full effect not named in the record; Potency, µM (highest dose often 92.2 µM), for inactives: at the top dose activity change, negative = less growth; 360,000 tested, 0.21% active; AID 651644; active = well fitted falling curve with a large enough effect; inconclusive = small, poorly fitted or top-dose-only effect; inactive = no such curve, though single readings can be large or run the other way;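 further: on the % scale 0 is the no-effect control and ±100 the full control effect; nearly all actives have a fitted effect of over 50% in size; the assay follows cell death caused by Vpr and the record does not say whether a fall means rescue or toxicity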
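Fission yeast strain RE007, carrying one chromosomally integrated HIV-1 vpr copy, was seeded at OD 0.01 in PMG+AL medium with 23 nL pinned compound. After 24 h at 30 °C and 99% humidity, viability was read by BacTiter-Glo luminescence.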
NS1 function inh – blocks influenza NS1 protein function. S. cerevisiae slowed by influenza A NS1, growth recovery by OD600. Potency, µM (doses to about 46.1 µM), without a hit: top-dose activity, positive = more growth. 270,000 tested, 0.4% active; active means well fitted rising curve with a large enough effect; inconclusive means small, poorly fitted or top-dose-only effect; inactive means no such curve, though single readings can be large or run the other way; further: nearly all actives have a fitted effect of over 50% in size
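S. cerevisiae expressing influenza A NS1, grown in glucose, washed, then diluted 1:100 into pH 6.0 -URA galactose medium with 23 nl compound. Growth recovery read as OD600; NS1-free strain serves as control.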
StopGo reporter – FMDV 2A StopGo reporter, luciferase signal. Potency, µM (top dose mostly 57.9 µM), inactives show at the top dose signal change, negative = less light. human cells with a luciferase reporter of 2A StopGo recoding; control for the full effect not named in the record. AID 1159524. 410,000 tested, 1.2% active; active = well fitted falling curve with a large enough effect; inconclusive = small, poorly fitted or top-dose-only effect; inactive = no such curve, though single readings can be large or run the other way; tested in HEK293T cells; further: on the % scale 0 is the no-effect control and ±100 the full control effect; nearly all actives have a fitted effect of over 45% in size; luciferase light after 4 h
SARS PLP yeast – inhibitors of SARS-CoV papain-like protease in yeast. S. cerevisiae expressing SARS-CoV PLpro, growth rescue; control for the full effect not named in the record. Potency, µM (series often up to 32.9 µM), inactives show top-dose activity, positive = growth rescue. 330,000 tested, 0.19% active. AID 485353; active means well fitted rising curve with a large enough effect; inconclusive means small, poorly fitted or top-dose-only effect; inactive means no such curve, though single readings can be large or run the other way; further: 0% is about no effect; nearly all actives have a fitted effect of over 55% in size; growth read by luminescence after 48 h
Cruzain inh Det – cruzain (T. cruzi) inhibition with detergent | P25779 | purified cruzain, Z-FR-AMC fluorescence, 0.01% Triton | Potency, µM, inactives show max response, negative = inhibition, usual class: inhibitors | 200,000 tested, 0.43% active | AID 1478;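 further: plate controls were neutral wells for no effect and buffer without enzyme for full effect; nearly all actives have a fitted effect of over 40% in size; top concentration of the series not given in the record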
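Detergent-containing run (0.01% Triton X-100) in acetate buffer pH 5.5 with 5 mM DTT: enzyme at 1.5 nM final, 15 min compound preincubation at room temperature, then 2 uM Z-FR-AMC substrate. Activity taken as 60 s fluorescence increase at 360/450 nm.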
* hit, by the source's call; ? = inconclusive; . = no result given; [ ] = remark or other dose. Unless noted, the call rests on the fitted dose curve; in most records, active means well fitted curve in the direction sought with a large enough effect; inconclusive means small, poorly fitted or top-dose-only effect, or another doubt; inactive means no such curve, though single readings can be large; an effect the other way counts as inactive or inconclusive. Potency means the concentration at half of the fitted maximal effect.

The opening 4 compounds (preview)
compound	Cruzain noTriton	LASV entry inh	Marburg entry inh	RE007 growth inh	Cruzain inh Det	StopGo reporter	NS1 function inh	SARS PLP yeast
COc1ccc(Cl)cc1C(=O)NNC(=S)NC(=O)c1cc(-c2ccccc2)nc2ccccc12	3.2µM*	-1%	-17%	8%	3.0%	-1%	8%	0%
CN(Cc1ccccc1)C(=O)COC(=O)c1ccccc1SCC(=O)N1CCCC1	.	7%	-2%	5%	.	-14%	.	2%
CCN(CCn1cccn1)C(=O)CC1C(=O)NCCN1CCc1ccccc1 (stereo unspecified)	.	14%	-8%	-19%	.	-10%	12%	1%
CCOc1ccccc1-n1c(O)c(C=Nc2c(C)n(C)n(-c3ccccc3)c2=O)c(=O)[nH]c1=O	-23%	?	9%	-10%	-4.9%	.	0%	-5%

The list itself (from the top)
compound	Cruzain noTriton	LASV entry inh	Marburg entry inh	RE007 growth inh	Cruzain inh Det	StopGo reporter	NS1 function inh	SARS PLP yeast
COc1ccc(Cl)cc1C(=O)NNC(=S)NC(=O)c1cc(-c2ccccc2)nc2ccccc12	3.2µM*	-1%	-17%	8%	3.0%	-1%	8%	0%
CN(Cc1ccccc1)C(=O)COC(=O)c1ccccc1SCC(=O)N1CCCC1	.	7%	-2%	5%	.	-14%	.	2%
CCN(CCn1cccn1)C(=O)CC1C(=O)NCCN1CCc1ccccc1 (stereo unspecified)	.	14%	-8%	-19%	.	-10%	12%	1%
CCOc1ccccc1-n1c(O)c(C=Nc2c(C)n(C)n(-c3ccccc3)c2=O)c(=O)[nH]c1=O	-23%	?	9%	-10%	-4.9%	.	0%	-5%
O=C(C1CCC1)N1CCC(c2nc3c(nnn3Cc3c(F)cccc3Cl)c(=O)[nH]2)CC1	3%	?	?	0%	-1.3%	-30%	-2%	-3%
CC(=O)c1cccc(OCCCOc2cccc3cccnc23)c1	.	-10%	?	-20%	.	-14%	-36%	-4%
COc1cccc(CNC(=O)CSc2ccc(-c3cccs3)nn2)c1	.	-2%	-3%[46.1 µM]	-22%	.	1%	.	1%
COc1ccccc1CC(=O)N1CCN(S(=O)(=O)c2ccccc2)CC1	.	.	.	18%	.	-12%	5%	1%
Cc1nc2[nH]c(=S)[nH]c2c(=O)[nH]1	.	9%[46.1 µM]	15%[46.1 µM]	6%	.	16%	.	.
O=[N+]([O-])c1ccccc1/C=C/C=N/n1c(-c2ccccc2)n[nH]c1=S	-15%	?	11%	4%	-8.4%	-15%	19%	21%
Cc1c(NC(=O)COC(=O)C23CC4CC(CC(Br)(C4)C2)C3)c(=O)n(-c2ccccc2)n1C	.	.	-1%[46.1 µM]	2%	.	-11%	.	0%
Cc1ccc(Nc2cc(C)nc3c(C)ccc([N+](=O)[O-])c23)cc1	-18%	?	11µM*	-28%	-8.1%	0%	1%	-55%
Cc1c(C(=O)Nc2cccc(Cl)c2)sc2nc3n(c(=O)c12)N=C(c1cccc(Br)c1)CS3	-2%	28%[46.1 µM]	.	.	1.5%	-11%	.	.
O=C(c1ccccc1F)N(Cc1cccnc1)Cc1cc2cc3c(cc2[nH]c1=O)OCCO3	.	?	?	-1%	.	-15%	.	0%
Cc1cc(C(=O)Nc2cccc(C(=O)O)c2)c(C)o1	11%	15%	-18%	-7%	0.2%	-5%	6%	7%
COc1ccc(CCNC(=O)c2c(N)no[n+]2[O-])cc1OC	.	11%[46.1 µM]	16%[46.1 µM]	5%	.	26%	.	-2%
Cc1ccc2occ(/C=N/O)c(=O)c2c1	4%	6%	5%	?	0.5%	-8%	-175%	-29%
CN(c1ccccc1)S(=O)(=O)c1nnc(NC(=O)c2ccccc2)s1	-1%	18%[46.1 µM]	.	.	-1.3%	19%	.	.
CCCCC(=O)Nc1cc(OC)c(NC(=O)C2CCCCC2)cc1OC	6%	?	-13%	-11%	7.6%	5%	13%	-7%
O=C1C(=O)N(CCS(=O)(=O)c2ccccc2)c2ccc(Cl)cc21	.	.	.	-12%	.	-5%	-1%	-6%
C=CCn1c(N)c(C(=O)Nc2ccccc2)c2nc3ccccc3nc21	?	2%	?	7%	-9.7%	-14%	5%	-10%
COc1ccc(CC(=O)O/N=C(\N)c2ccc(C)cc2)cc1	.	-1%	29%	3%	.	66%[activator]	-5%	-5%
Cc1cc(N)ccc1N=Nc1c(C)n(C)n(-c2ccccc2)c1=O	-13%	5%	-5%	6%	-7.6%	14%	18%	-7%
COc1ccc(C(=O)NNC2=NC(C)(C)Cc3cc(C)c(C)cc32)cc1	7%	1%	4%	22%	2.5%	-25%	4%	2%
COC(=O)c1c(NC(=O)c2ccco2)sc2c1CCN(C(C)=O)C2	.	-3%	-7%	-5%	.	-12%	-9%	-7%
Cc1[nH][nH]c(=O)c1N=Nc1ccc(Cl)cc1	.	13%	24%	8%	.	22%	.	2%
O=C(NC(=S)Nc1ccc(S(=O)(=O)Nc2ccccc2)cc1)C1CC1	.	15%	20%[46.1 µM]	1%	.	53%[activator]	7%	0%
CCOC(=O)CSc1nc(-c2ccc(C)cc2C)cc(-c2ccccc2)c1C#N	7%	-13%[46.1 µM]	.	.	0.5%	4%	.	.
CC(NC(=O)Cn1ncc(Cl)c(Cl)c1=O)C12CC3CC(CC(C3)C1)C2 (stereo unspecified)	-11%	?	?	2%	-2.2%	?	-15%	-53%
CCOc1cc2c(cc1OCC)-n1cccc1C(c1cc(OC)ccc1F)NC2 (stereo unspecified)	.	.	.	2%	.	?	-32%	-4%

Remaining list, next part
compound	Cruzain noTriton	LASV entry inh	Marburg entry inh	RE007 growth inh	Cruzain inh Det	StopGo reporter	NS1 function inh	SARS PLP yeast
O=c1c2cc(NC(=S)NC3CCCCC3)ccc2nc2n1CCCCC2	.	11%[46.1 µM]	-29%[46.1 µM]	1%	.	-27%	-14%	-2%
O=C(c1cc2ccccc2c(=O)o1)N1CCCCCC1	-3%	?	7%	-3%	-5.8%	72%[activator]	17%	1%
Cn1c(C(=O)Nc2ccc(OC(F)(F)F)cc2)cc2c(=O)n3ccccc3nc21	9%	-25%[46.1 µM]	.	.	-1.5%	2%	.	.
Cc1cccc(N2CCN(C(=S)c3ccccc3)CC2)c1	.	-7%	?	-11%	.	-18%	-5%	0%
Oc1ccc(C2=NNC(=NCc3ccc4c(c3)OCO4)SC2)c(O)c1	?	-12%	?	-26%	-13%	52%[activator]	16%	26%
Cc1ccc(C)c(N(CC(=O)NCc2ccccc2)C(=O)c2csnn2)c1	.	-8%[46.1 µM]	8%[46.1 µM]	2%	.	25%	-2%	1%
COc1cccc(NS(=O)(=O)c2ccc3[nH]cc(C(=O)NCCC(C)C)c(=O)c3c2)c1	4%	?	?	-5%	-3.7%	?	4.5µM*	-8%
Cc1ccc(C)c(S(=O)(=O)N2CCN(C(=O)CCNS(=O)(=O)c3ccc(C)c(C)c3)CC2)c1	.	?	?	-5%	.	0%	.	1%
Cc1cc(N2CCCC2)c(F)cc1/C=C\[N+](=O)[O-]	.	?	-11%[46.1 µM]	-14%	.	22µM*	4%	11%
Cc1ccc(C2=NNC3(CCOC(C)(C)C3)S2)cc1 (stereo unspecified)	.	14%[46.1 µM]	?	5%	.	-18%	-7%	-2%
O=C(CCS(=O)(=O)c1ccc(Br)cc1)N1CCN(c2ccc(Cl)cc2)CC1	4%	14%	?	1%	-2.6%	?	-3%	4%
O=C(COC(=O)c1cccc(S(=O)(=O)NCc2ccccc2)c1)NC1CC1	.	-1%	-14%[46.1 µM]	-9%	.	16%	.	-1%
NC(=O)COc1ccc(NS(=O)(=O)Cc2ccccc2)cc1	.	16%	-11%	11%	.	14%	21%	3%
COc1ccc2ccn(S(=O)(=O)c3ccccc3)c2c1	.	19%	20%	6%	.	-16%	-18%	-1%
CCC(C(=O)NC1CCCC1)N(C(=O)c1snc(C(N)=O)c1N)c1ccc(OC)cc1 (stereo unspecified)	.	7%[46.1 µM]	-1%[46.1 µM]	-2%	.	12%	19%	-2%
COc1ccccc1Nc1cc(C(=O)NCCCN(C)C2CCCCC2)c2ccccc2n1	-2%	?	?	.	-12%	-29%	.	.
COc1ccc(Cn2ccnc2SCC(=O)Nc2ccccc2OC)cc1	.	6%	-20%	?	.	0%	-35%	0%
CCCCn1c(N)c(N(CC(C)C)C(=O)C2CCCN(C(=O)c3ccc(Cl)cc3)C2)c(=O)[nH]c1=O (stereo unspecified)	.	0%	?	-7%	.	-12%	.	0%
C=COCCNC(=S)Nc1cccc(Cl)c1	.	-23%[46.1 µM]	-27%[46.1 µM]	3%	.	6%	12%	0%
Cc1cc(C(=O)CSc2nnc(N)s2)c(C)n1-c1c(C)n(C)n(-c2ccccc2)c1=O	2%	-4%	-1%[46.1 µM]	-14%	0.7%	-19%	7%	3%
Cc1ccc(S(=O)(=O)NCCCN2CCOCC2)c(C)c1	0%	10%	-12%	8%	-4.8%	-1%	0%	2%
CCOCCCNC(=S)N1CCN(CC)CC1	.	20%	-3%	-3%	.	-14%	2%	-1%
COc1ccc(S(=O)(=O)N2CCCC(C(=O)NC3CC3)C2)cc1OC (stereo unspecified)	.	2%	18%[46.1 µM]	-5%	.	-9%	.	-1%
O=C(Oc1c(-c2ccccc2)c(=O)n2c3c(cccc13)CC2)c1ccco1	.	-8%	-2%[46.1 µM]	11%	.	-6%	11%	3%
Cc1ccc(CNC(=O)c2cc(-c3ccc(C)c(C)c3)nc3ccccc23)cc1	-7%	-5%[46.1 µM]	.	.	-2.5%	-13%	.	.
O=C(NCCc1cccc(Cl)c1)c1cccc(-n2cnnn2)c1	.	-13%	-3%	2%	.	-3%	.	-1%
